# MITF inh: inhibitors of MITF, primary screen, MITF inhibitor project, cell-based, luminescence; inhibition, % (concentration not given with the values); TRPM1 promoter luciferase, 24 h; 0.28% of 37,000 active; AID 2240, 2010;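 active = most replicates at 85% or more, or half of them and the mean; inconclusive = half reach 85% but not the mean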;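 note: human melanocyte line stably carrying TRPM1 promoter luciferase reporter; 0% = vehicle wells and 100% = a positive control; the first replicate is given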
# The depositor's hits bear a star; ? = inconclusive.
Compound,MITF inh
COc1cc([N+](=O)[O-])ccc1NC(=S)NCc1ccccn1,-33
Cc1sc(NC(=O)C2CC(Cl)=CCC2C(=O)O)c(C#N)c1C (stereo unspecified),8
COc1cccc(OC)c1C(=O)NCCCO,-27
Cc1cc(C)c2nc(-c3ccccn3)cc(C(=O)NCc3ccco3)c2c1,32
Cc1coc(C)c1C(=O)CC1(O)C(=O)N(CCc2ccccc2)c2ccc(Cl)cc21 (stereo unspecified),44
N#Cc1cc(C#N)c(SCCN2CCOCC2)nc1N,-35
Cc1cccc2c(C(=O)NCCc3ccc(S(N)(=O)=O)cc3)cc(-c3ccccc3Cl)nc12,-4
O=C(CSc1ncn(-c2ccccc2)n1)Nc1ccc([N+](=O)[O-])cc1,5
CN1CCN(CC(=O)Nc2ccccc2[N+](=O)[O-])CC1,-9
CCc1c(C)nc(SCC(=O)Nc2cccc(Br)c2)[nH]c1=O,0
COc1ccc(Cl)cc1NC(=O)CN(c1c(C)cccc1C)S(C)(=O)=O,23
O=C(CN1CCOCC1)Nc1ccc(S(=O)(=O)N2CCCC2)cc1,-10
Cc1cc(OCc2nc3ccccc3s2)ccc1NC(=O)Nc1cccc(Cl)c1,-13
O=C(CSc1ncn[nH]1)c1c[nH]c2ccccc12,-34
CCc1ccccc1NC(=O)C(C)n1cc([N+](=O)[O-])cn1 (stereo unspecified),4
CS(=O)(=O)N(CC(=O)Nc1ccc(Br)cc1)c1ccc2c(c1)OCCO2,-14
O=S(=O)(NCCSc1ccccn1)c1ccc(Br)cc1,-19
O=C(Nc1ccccc1C(=O)OCc1cccc(C(=O)c2ccccc2)c1)c1ccccc1,2
CC(Sc1nc2c(c(=O)n(C)c(=O)n2C)n1Cc1ccc(Cl)cc1Cl)C(=O)O (stereo unspecified),-11
NC(=O)c1c(NC(=O)C2CC(=O)N(c3ccccc3)C2)sc2c1CCCC2 (stereo unspecified),1
CCOC(=O)c1c(NC(=O)COc2ccc(F)cc2)sc2c1CCCC2,-2
COC(=O)c1ccccc1NC(=O)CSc1nnc(-c2ccc(C)cc2)o1,-14
O=C(COc1ccc2ccccc2c1Br)Nc1ccccc1C(=O)NC1CCCCC1,22
COc1cc(NC(=O)CS(=O)(=O)c2ccc(C)cc2)cc(OC)c1OC,-11
O=C(CCn1cnc2ccccc2c1=O)Nc1ccccc1Br,-17
CCN(CC)C(=O)c1sc(NC(=S)Nc2nc(C)cc(C)n2)c(C(=O)OC)c1C,-3
O=C(c1ccccc1Br)N1CCN(c2ccc([N+](=O)[O-])c(NCc3cccnc3)c2)CC1,-18
NC(=O)CSc1nnc(-c2ccccc2O)n1-c1ccccc1,-14
Cc1cc(NC(=O)c2cc(-c3ccccc3)on2)n(-c2ccccc2)n1,1
Cc1ccc(C(=O)CSc2ncnc3sc4c(c23)CCCC4)cc1C,8
Cc1cc(-c2ccccc2)nc(SCC(=O)Nc2ccc(SC(F)F)cc2)n1,11
Cc1cc(N(CC(=O)NC(C)C)S(C)(=O)=O)ccc1Br,-13
CC1(C)CC(=O)c2c(O)cc(OCC(=O)c3ccccc3)cc2O1,-59
COC(=O)COc1cccc(NC(=O)c2ccccc2Cl)c1,11
CCN(CC)CCNc1ncnc2scc(-c3ccc(F)cc3)c12,-5
S=C(NCCc1cnc[nH]1)Nc1ccc(Oc2ccccc2)cc1,-4
O=C(NCCCn1ccnc1)c1cc(-c2cccnc2)nc2ccc(Br)cc12,-13
N#Cc1c(NC(=S)NC(=O)c2cncc(Br)c2)sc2c1CCCC2,-3
CCc1cccc(C)c1NC(=O)C(C)NS(=O)(=O)c1ccc(C)cc1 (stereo unspecified),2
O=C(c1ccccc1)c1ccc(OCC(O)Cn2cnc3ccccc32)cc1 (stereo unspecified),50

# Entries from the list above with an aryl methoxy group, in the order listed:
Compound,MITF inh
COc1cc([N+](=O)[O-])ccc1NC(=S)NCc1ccccn1,-33
COc1cccc(OC)c1C(=O)NCCCO,-27
COc1ccc(Cl)cc1NC(=O)CN(c1c(C)cccc1C)S(C)(=O)=O,23
COc1cc(NC(=O)CS(=O)(=O)c2ccc(C)cc2)cc(OC)c1OC,-11

# Continuation:
Compound,MITF inh
Cc1ccc(S(=O)(=O)NC(=O)COc2cccc3ccccc23)c(C)c1,4
COc1ccc(CN2C(=O)c3cccc4cccc(c34)C2=O)cc1S(=O)(=O)N1CCCCC1,52
Cc1ccccc1OC(C)c1nc(-c2ccccn2)no1 (stereo unspecified),-82
CCn1c(SCC(=O)Nc2cccc(OC)c2)nc2scc(-c3ccccc3)c2c1=O,11
O=C(COc1cc(Cl)c(Cl)cc1Cl)Nc1ccccc1[N+](=O)[O-],0
Cc1ccc2oc(C(=O)Nc3ccc(S(=O)(=O)Nc4ncccn4)cc3)c(C)c2c1,-25
CC(=O)c1c(C)oc2ccc(N(C(=O)c3ccc(C)cc3)S(=O)(=O)c3cccc4cccnc34)cc12,25
N#Cc1ccc(NC(=O)Cn2cnc([N+](=O)[O-])c2)cc1,-19
Cc1cc(C)c(OCC(=O)Nc2ccccc2-c2nc3ccccc3s2)c(Br)c1,13
CCOC(=O)c1sc(NC(=O)c2cc3ncc(Br)cn3n2)c(C(=O)OCC)c1C,-8
COC(=O)c1cccc(NC(=O)COc2cc(C)cc(C)c2)c1,-20
CCOc1ccccc1N1CC(C(=O)Nc2ccc(C(=O)O)cc2)CC1=O (stereo unspecified),-18
Cc1ccc(-c2nnc(Nc3ccc(C(=O)N(C)C)cc3)c3ccccc23)cc1S(N)(=O)=O,-20
O=C(CCCN1C(=O)c2ccccc2C1=O)Nc1ccccc1Cl,-26
Cc1nc(SCC(=O)Nc2ccc3ccccc3c2)n[nH]1,-20
O=C(CSc1nc(O)cc(=O)[nH]1)Nc1ccc(Br)cc1,3
O=C(Nc1ccc(O)cc1)C1CCCN1S(=O)(=O)c1ccc(F)cc1 (stereo unspecified),-1
Cc1cc(Cn2ccc(C(F)(F)F)n2)c(C)c(-c2c(C#N)c(N)nc3c2CCCCC3)c1,23
COc1ccc(NC(=O)Cc2coc3cc(C)cc(C)c23)c(OC)c1,-11
CCOc1cc(S(=O)(=O)NCCN2CCOCC2)ccc1F,-2

# Later entries
SMILES,MITF inh
Cc1c(Cl)ccc2c(C(=O)NCCCn3cc(Br)cn3)cc(-c3ccncc3)nc12,32
O=c1[nH]c(=O)n(Cc2ccco2)c2c1C(C(F)(F)F)(C(F)(F)F)N=C(c1ccc(F)cc1)N2,?
O=C(CCSc1ccc([N+](=O)[O-])cc1)Nc1cccc2cccnc12,-4
Cc1ccc(-n2c(SCC(=O)Nc3ccc(F)c(F)c3)nnc2-c2ccc(Cl)cc2)cc1,4
CCc1ccc2nc(N3C(=O)C(=O)C(C(=O)c4ccco4)C3c3cc(OC)ccc3OC)sc2c1 (stereo unspecified),-8
Cc1cccc(NC(=O)C2CC(=O)n3c(nc4ccccc43)N2)c1 (stereo unspecified),-8
Cc1cc(C)c2c(=O)[nH]c(SCC(=O)N3CCOCC3)nc2n1,-14
Cc1ccc(C)c(S(=O)(=O)NCC(=O)Nc2ccc(F)c(Cl)c2)c1,3
CC(C)CC(NS(=O)(=O)c1cccc2nsnc12)C(=O)O (stereo unspecified),-16
O=[N+]([O-])c1ccc(S(=O)(=O)NCCN2CCOCC2)cc1,0
CC(C)(C)c1ccc(OCC(=O)Nc2cccnc2)c(Br)c1,-14
NC(=O)CN(Cc1ccc(Cl)c(Cl)c1)S(=O)(=O)c1ccc(Br)cc1,-10
O=C(CSC1CC(=O)N(c2ccc(Br)cc2)C1=O)Nc1ccc(Cl)c(Cl)c1 (stereo unspecified),-7
Cc1ccc(-n2c(SCC(=O)Nc3c(F)cc(F)cc3Br)nc3ccccc3c2=O)cc1,-5
COC(=O)c1ccccc1NC(=O)COc1cccc(Cl)c1Cl,-47
O=C1c2ccccc2C(=O)N1CCc1nc2ccccc2c(=O)n1Cc1ccccc1,-2
Cc1cc(C(=O)CSc2nnc3ccccn23)c(C)n1-c1cc(Cl)ccc1Cl,-41
CCn1cc(C(=O)NC(=S)Nc2sc3c(c2C(=O)OC)CCCCCC3)cn1,7
O=C(c1ccco1)c1cn(CC(=O)N2CCCc3ccccc32)c2ccccc12,14
CCOC(=O)c1ccc(NC(=O)Cn2cc(C#N)c3ccccc32)cc1,18
Cn1cc([N+](=O)[O-])c(C(=O)NCc2ccco2)n1,15
Cc1sc(NC(=S)NC(=O)c2ccco2)c(C(N)=O)c1C,-67
O=C(CSc1nnc(-c2ccccc2)n1-c1ccccc1)Nc1cccc(Br)c1,39
Cc1ccnc(NC(c2cccc(F)c2)c2ccc3ccc(C)nc3c2O)c1 (stereo unspecified),54
COc1ccccc1OCC(=O)Nc1cccc(C(=O)N2CCOCC2)c1,-2
O=C(COc1ccc([N+](=O)[O-])cc1)Nc1ccc(NC(=O)c2ccccc2)cc1,-4
Cc1cc(OCC(=O)Nc2ncn[nH]2)c(C)cc1Br,-65
Cc1cc([N+](=O)[O-])nn1CC(=O)Nc1ccc(F)cc1,3
O=C(Nc1ccccc1C(=O)O)c1ccc(Br)c(S(=O)(=O)N2CCOCC2)c1,2
COc1ccc(NC(=O)C2CCC(=O)N2S(=O)(=O)c2ccc(C)cc2)c(OC)c1 (stereo unspecified),-8
Cc1cc(C)nc(NS(=O)(=O)c2ccc(NC(=O)c3ccccc3Cl)cc2)n1,7
OCCNc1nc2ccc(Cl)cc2[nH]1,-49
CCN(CC)CC(O)Cn1c(-c2ccccc2Cl)nc2ccccc21 (stereo unspecified),-7
O=C(NCCc1c[nH]c2ccccc12)Nc1ccc(Cl)c(Cl)c1,-63
CCCOc1ccc(-c2nc(SCC(N)=O)n[nH]2)cc1,-70
CC(=O)c1cccc(NC(=S)NCCn2cc(Cl)cn2)c1,-6
COc1ccc(OC)c(NC(=O)COc2ccc3c(=O)c(-c4ccccc4OC)c(C(F)(F)F)oc3c2)c1,11
Cn1c(NCc2cc(Br)ccc2O)nc2ccccc21,-55
CN(C)S(=O)(=O)N1CCN(CC(=O)Nc2cc(Cl)ccc2Cl)CC1,5
CCOC(=O)c1cnn(-c2nc(SC)nc3sc4c(c23)CCC4)c1N,10
COc1cccc(NC(=O)Cn2cnc3ccccc3c2=O)c1,-17
CC(Oc1ccc(Cl)cc1Cl)C(=O)Nc1cc(C(F)(F)F)ccc1N1CCOCC1 (stereo unspecified),46
O=C(Nc1cccc(C(F)(F)F)c1)c1cc([N+](=O)[O-])ccc1NCc1cccnc1,19
COc1cccc(NC(=O)COc2ccccc2C(N)=O)c1,-24
CCn1c(SCC(=O)Nc2cc3oc4ccccc4c3cc2OC)nnc1-c1cccs1,56
COC(=O)c1c(NC(=O)COc2cc(C)ccc2C)sc2c1CCC2,-7
O=C(O)CCNC(=O)c1ccc(C#CC2(O)CCCCC2)cc1,44
Cc1cc(Br)ccc1OCC(=O)NC(=S)Nc1ccccc1C(N)=O,-7
Cc1cccc(C)c1OCCCCNCCO,3
COc1ccc(-c2nc(SCC(=O)Nc3cccc(F)c3)n[nH]2)cc1,8

# More compounds follow:
SMILES,MITF inh
COC(=O)c1cccc(NC(=O)COc2ccc([N+](=O)[O-])cc2)c1,5
Cc1nn(CC(=O)Nc2cccnc2)c(C)c1[N+](=O)[O-],-9
CS(=O)(=O)CCC(C(=O)N1CCOCC1)N1C(=O)c2ccc(Br)cc2C1=O (stereo unspecified),-10
Cc1nnc(NC2(C(F)(F)F)C(=O)Nc3c2c(=O)n(C)c(=O)n3C)s1 (stereo unspecified),-9
O=C(CC1(O)C(=O)N(Cc2cccc3ccccc23)c2ccccc21)c1ccco1 (stereo unspecified),21
COc1ccc(C)cc1N(CC(=O)Nc1c(C)n(C)n(-c2ccccc2)c1=O)S(C)(=O)=O,3
COc1ccc(OC)c(NC(=O)CSc2nnc(-c3cccnc3)s2)c1,-4
CCOC(=O)c1c(NC(=S)NC(C)C2CCCO2)sc2c1CCCC2 (stereo unspecified),-28
CCCCn1c(NCc2ccc(OC)cc2O)nc2ccccc21,-6
Cc1cc(N(CC(=O)Nc2ccccc2C(=O)N2CCOCC2)S(C)(=O)=O)ccc1Br,-2
CCOC(=O)c1ccc(NC(=O)CSc2nc(C)cc(C(F)(F)F)n2)cc1,17
Cc1cc(Cl)ccc1OCC(=O)Nc1ccccc1-c1nc2ccccc2s1,23
Cc1ccnc(SCC(=O)Nc2cccc3ccccc23)n1,13
COC(=O)c1ccccc1NC(=O)c1ccc(NC(=O)CSc2ccccc2)cc1,-7
O=C(CN1C(=O)c2ccccc2C1=O)NCC1COc2ccccc2O1 (stereo unspecified),5
Cc1c(C(=O)NC(=S)NCc2cccnc2)oc2ccccc12,-10
COc1ccc(-c2nc(SCC(=O)Nc3ccc(Cl)cc3)[nH]c(=O)c2C#N)cc1,0
O=S(=O)(c1ccccc1)c1nc(-c2ccco2)oc1NCc1ccco1,-14
Cc1cc(C)nc(NS(=O)(=O)c2ccc(NC(=S)NC(=O)c3ccccc3Br)cc2)n1,20
COc1cccc(CN2CCN(C(=S)NCc3ccco3)CC2)c1,6
COc1ccc(CNCCSc2nnnn2C)cc1OC,-6
Cc1ccc(OCC(=O)Nc2ccc3oc(-c4c(F)c(F)c(F)c(F)c4F)nc3c2)cc1,-5
Cc1cccc(N(CC(=O)O)S(C)(=O)=O)c1C,-9
COc1ccccc1NC(=O)COc1ccc(Br)cc1CO,-24

# Seven entries picked at random from those above:
SMILES,MITF inh
COc1ccc(OC)c(NC(=O)CSc2nnc(-c3cccnc3)s2)c1,-4
CS(=O)(=O)CCC(C(=O)N1CCOCC1)N1C(=O)c2ccc(Br)cc2C1=O (stereo unspecified),-10
COc1ccccc1NC(=O)COc1ccc(Br)cc1CO,-24
COc1cccc(CN2CCN(C(=S)NCc3ccco3)CC2)c1,6
O=C(CN1C(=O)c2ccccc2C1=O)NCC1COc2ccccc2O1 (stereo unspecified),5
COC(=O)c1ccccc1NC(=O)c1ccc(NC(=O)CSc2ccccc2)cc1,-7
Cc1cc(Cl)ccc1OCC(=O)Nc1ccccc1-c1nc2ccccc2s1,23

# Source: PubChem

# An excerpt; count on the stated rates, not on these rows.
